# Ecoli rRNA inh: selective bacterial rRNA inhibition in E. coli; E. coli WT GFP vs humanized-ribosome RFP mutants, fluorescence, 24 h; hits give low values; DMSO median 0, no signal -100; GFP signal change (wild-type ribosome), % (no concentration beside the values); actives 1.6% (n = 350,000); AID 720706;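 active = significant combined selectivity score with lowered wild-type GFP, culture density cut under 30%, mutant RFP and density less affected; inactive = any of these conditions unmet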; note: one replicate is shown; some compounds called inactive have numbers as strong as hits
# MLL AF4-AF9 inh: MLL-AF4/AF9 protein interaction inhibition; AlphaScreen, biotin-AF4 peptide binding to FLAG-AF9; inhibition, % at 10 µM; actives 0.47% (n = 350,000); AID 651704;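 active = every replicate reaching a set inhibition limit, whatever the replicate mean, cut at about 25% in these data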;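 note: 0% = plate neutral control median and 100% = total signal loss; the record names both 10 and 1 µM as test concentration; the first replicate is given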
# Target sequence (P42568 whole entry, looked up): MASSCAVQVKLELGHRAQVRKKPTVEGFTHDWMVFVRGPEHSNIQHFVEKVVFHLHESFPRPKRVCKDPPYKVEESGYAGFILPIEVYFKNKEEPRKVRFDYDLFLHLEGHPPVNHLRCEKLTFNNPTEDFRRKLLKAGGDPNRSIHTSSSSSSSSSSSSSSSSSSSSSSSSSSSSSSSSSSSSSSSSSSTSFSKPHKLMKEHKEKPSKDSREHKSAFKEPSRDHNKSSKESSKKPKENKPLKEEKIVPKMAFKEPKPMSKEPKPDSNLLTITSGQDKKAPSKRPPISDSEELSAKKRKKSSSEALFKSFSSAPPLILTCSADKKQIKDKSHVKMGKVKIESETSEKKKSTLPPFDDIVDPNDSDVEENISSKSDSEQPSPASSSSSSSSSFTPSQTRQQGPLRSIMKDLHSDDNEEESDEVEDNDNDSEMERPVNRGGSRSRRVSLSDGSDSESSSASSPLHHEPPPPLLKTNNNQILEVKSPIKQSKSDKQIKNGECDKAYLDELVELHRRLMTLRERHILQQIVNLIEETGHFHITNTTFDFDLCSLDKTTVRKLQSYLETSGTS
# Vif TR-FRET: HIV-1 Vif–A3G interaction blockers – biochemical, TR-FRET, GST-Vif 1-94, biotin-A3G peptide, dose response retest, primary screen (AID 1117319); inhibition, %, or IC50 in µM where a hit was titrated; actives 0.57% (n = 260,000); TR-FRET GST-Vif / biotin-A3G peptide binding; higher % means a stronger effect; test concentration not given here; strong numbers were not always called active;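 active = above the screen mean plus three standard deviations and confirmed in dose response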;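 note: Vif residues 1-94 fused to GST binding biotinylated APOBEC3G peptide 110-148; 0% = full assay without inhibitor and 100% = GST in place of GST-Vif; retest series ran down from 100 µM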
# Ecoli rRNA inh OD600: also measured in Ecoli rRNA inh; calls as there; OD600 change, %; measured here: OD600 growth;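 optical density of the mix in the first replicate; 0 = DMSO median and -100 = no signal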
# Ecoli rRNA inh RFP: further read-out of Ecoli rRNA inh, marked with its call; RFP signal change, %; measured here: RFP humanized mutant strains;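 first replicate; 0 = DMSO median and -100 = no signal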
# Active calls of the source: *; & = joins results of further samples. Not all compounds are listed; the hit share may differ from the screen's.
# Each structure is followed by: Ecoli rRNA inh	Ecoli rRNA inh OD600	Ecoli rRNA inh RFP	MLL AF4-AF9 inh	Vif TR-FRET
> O=C1OC(c2ccccc2)(c2cc(Br)c(O)c(Br)c2)c2ccccc21 (configuration not stated)
 : -56	-77	-19	-1.0	0%
> O=C(CN1CCN(c2ccccc2O)CC1)Nc1ccc(S(=O)(=O)N2CCCCCC2)cc1
 : -5	-6	3.0	4.3	7%
> CC1=C(C(=O)N(C(C)C)C(C)C)CC(CC(=O)NCCc2ccccn2)C(=O)N1Cc1ccccc1 (configuration not stated)
 : 9	-4	0.2	-2.5	-3%
> Nc1ccccc1C(=O)N1O[C@@H]2C=C[C@H]1C2
 : 8	4	-1.4	-3.1	11%
> CCn1c(SCC(=O)NCCCN2CCCC2=O)nnc1-c1cccc(C)c1
 : 1	11	-2.6	-2.5	2%
> NC1=CC(=O)C(=O)c2ccccc21
 : -15	-29	-3.9	-0.1	6%
> O=C(COc1ccc(F)c(Cl)c1)NC(=O)NC1CCCC1
 : 1	5	3.5	2.7	-8%
> Cc1ccc(S(=O)(=O)N2CCC(C(=O)NCCN3CCOCC3)CC2)cc1
 : 18	15	-0.6	0.0	4%
> COc1ccccc1C=NN=C(NN=Cc1ccccc1OC)NN=Cc1ccccc1OC
 : 4	11	-1.4	2.4	-4%
> Cc1cccnc1NC(=O)Nc1cccc(F)c1
 : 10	13	-1.6	-4.1	7%
> Cc1ccc(OC(=O)N(C)C[C@@H]2OCc3cn(nn3)CCCC(=O)N([C@@H](C)CO)C[C@H]2C)cc1
 : 2	19	0.3	0.1&-0.8&0.4	0%
> Cc1ccccc1NC(=O)CNC(=O)N1CC(=O)Nc2ccccc21
 : 2	8	-7.2	-2.3	-1%
> O=C1OCCN1C(=O)[C@H]1[C@H](c2ccc(F)cc2)C(c2ccccc2)=NN1c1ccccc1
 : 20	6	0.7	-2.5	0%
> COC(=O)Cn1cnc(C(=O)Nc2ccc(C)c(C)c2)n1
 : 3	2	-0.9	-6.0	0%
> CC1CCN(C(=O)c2ccc3c(c2)C(=O)c2ccccc2-3)CC1
 : -14	-28	-7.9	5.7	0%
> CSc1ncnc2c1ncn2CCCNCc1ccc2c(c1)OCO2
 : 1	11	-6.0	-2.6	-1%
> Nc1ccc(S(=O)(=O)Nc2cc(Cl)c(N)c(Cl)c2)cc1
 : -4	-4	4.1	5.6	-12%
> O=C(CS(=O)(=O)c1ccc(Cl)cc1)Nc1nccs1
 : 1	-1	0.4	-0.4	3%
> Cc1ccc(C(=O)OCC(=O)N2CCC(C)CC2)cc1S(=O)(=O)N1CCOCC1
 : 6	3	2.4	-0.5	7%
> Cc1ccc([C@H]2C[C@H](n3cc(C4CC4)nn3)[C@@H](O)CN2CC2CCCCC2)cc1
 : -6	-27	9.3	0.7	-1%
> CC(=O)OCC=C1CCC2C3CC(C)C4=CC(=O)CCC4(C)C3C(O)CC12C (configuration not stated)
 : -50	-77	-10	-57	10%
> CC(=O)Nc1ccc2c3c(ccc([N+](=O)[O-])c13)CC2
 : 12	13	1.9	1.9	1%
> CCCCn1c(N)c(N(C)C(=O)c2ccc(OCC3CCCO3)cc2)c(=O)[nH]c1=O (configuration not stated)
 : 21	16	2.4	-0.3	-2%
> CN(C)CCNCCCNc1c2ccccc2nc2cccc([N+](=O)[O-])c12
 : 5	4	0.0	17	-3%
> COc1ccccc1C1OCC(C)(C)CO1
 : 12	9	-1.3	3.9	-1%
> C[C@@H]1CN([C@@H](C)CO)C(=O)CCCn2nncc2CO[C@@H]1CN(C)C(=O)Nc1ccc(N2CCN(C)CC2)cc1
 : 9&2	23&12	-0.9&3.5	-3.0&3.7	-3%
> CC1=NN(C(N)=S)C(=O)C1N=Nc1ccccc1[N+](=O)[O-] (configuration not stated)
 : 11	11	-1.4	-3.9	6%
> Brc1cc2c(cc1C1OCCCO1)OCO2
 : 7	7	-1.6	-0.7	-1%
> Cc1csc(=O)n1CCC(=O)OC(C)C(=O)NCc1ccccc1 (configuration not stated)
 : 6	11	-0.9	0.1	-10%
> C[C@@H]1CCCCO[C@H](CN(C)C(=O)Nc2cccc3ccccc23)[C@@H](C)CN([C@H](C)CO)C(=O)c2cc(NC(=O)c3ccccc3)ccc2O1
 : 3&2	-1&-1	14&2.3	-1.0&0.2	-5%
> O=C(Cc1c[nH]c2ccccc12)N1CCN(S(=O)(=O)c2ccc(F)cc2)CC1
 : -4	3	3.9	5.2	1%
> CCOC(=O)/C=C1/SCC(=O)N1CCOc1cccc(Br)c1
 : 0	-5	3.2	-0.4	-6%
> CC(NC(=O)COC(=O)CN1C(=O)NC2(CCCC2)C1=O)c1ccc(F)cc1 (configuration not stated)
 : 10	4	0.6	-6.0	6%
> CCOC(=O)C(=Cc1ccccc1)C(=O)c1ccccc1
 : -46*	-44*	-8.3*	1.0	-2%
> C=CCNC(=S)N1N=C(c2ccco2)CC1c1ccco1 (configuration not stated)
 : 0	-1	3.9	8.9	5%
> C[C@H](CO)N1C[C@H](C)[C@@H](CN(C)C(=O)Nc2ccc3c(c2)OCO3)Oc2c(NC(=O)C3CC3)cccc2C1=O
 : 2&-1	1&5	-0.2&-3.0	-11&-0.3	-4%
> CCOc1cccc2cc(C(N)=O)c(=N)oc12
 : 5	0	-1.5	0.9	-1%
> CCOc1cccc2sc(NN)nc12
 : -3	3	-1.2	14	9%
> COc1ccc(CC(=O)N[C@@H]2c3cc(OC)c(OC)cc3C[C@H]2O)cc1
 : 22	12	4.6	1.4	4%
> C[C@@H]1CCCCO[C@H](CN(C)C(=O)Nc2ccc(C(F)(F)F)cc2)[C@@H](C)CN([C@H](C)CO)C(=O)c2cc(NC(=O)c3ccncc3)ccc2O1
 : 7&-1	2&-9	1.7&0.2	1.5&-0.8	10%
> Cc1ccc(NS(=O)(=O)c2ccc(Cl)nc2)c(C)c1
 : 3	-8	2.7	-8.4	6%
> CCOC(=O)c1cc2c(c(-c3ccccc3)n1)[C@@H](CCO)N(S(=O)(=O)C(C)(C)C)C2
 : 3	15	2.5	-6.7	-4%
> CCN(C(=O)C=Cc1ccco1)c1ccccc1
 : -8	-3	0.7	0.3	11%
> O=C(OCC(=O)N1CCCCCC1)c1cccc(Cl)c1Cl
 : -20	-28	-0.8	-3.3	1%
> COc1ccc(NC(=O)N(O)C2(C#N)CCCCC2)cc1
 : 4	6	-1.0	-1.5	1%
> CCCCCCCCNc1ccccc1S(=O)(=O)NCc1ccccc1
 : 7	6	0.7	-5.7	9%
> COc1ccc(-c2cc3nc(C)cc(N4CCN(C(=O)c5ccco5)CC4)n3n2)cc1
 : 4	-2	0.8	-1.7	-16%
> COc1ccc(CN2CCN(C(=O)c3ccc(S(=O)(=O)NCc4ccco4)cc3)CC2)cc1
 : -3	-6	1.4	1.9	-10%
> COc1ccc(C(=O)COC(=O)CCN2C(=O)C3CC=CCC3C2=O)c(OC)c1 (configuration not stated)
 : -6	-11	-0.8	-3.6	-1%
> CCOC(=O)c1ccc(-c2c(C)cc3oc(=O)cc(-c4ccccc4)c3c2C)cc1
 : 17	21	3.5	0.0	-8%
> CNC[C@H]1OCc2ccccc2-c2ccccc2C(=O)N([C@@H](C)CO)C[C@H]1C
 : 2&0	-1&3	-0.7&-0.1	-0.2&-6.1	-1%
> CCOc1ccccc1NC(=O)C(OC(=O)c1cnc(C)cn1)c1ccccc1 (configuration not stated)
 : -1	-3	1.0	0.3	6%
> Cc1ccc(S(=O)(=O)N2C[C@H]3[C@H]4C(=O)N(c5ccccc5)C(=O)[C@H]4C[C@H](OC(=O)NC4CC4)[C@@]3(O)C2)cc1
 : -4	5	-2.1	-3.6	2%
> CC(=NNc1ccccc1)C(C)=NNc1ccccc1
 : 9	5	2.7	2.1	4%
> O=C(CNC(=O)c1ccccc1Br)NCC(c1ccco1)N1CCCCC1 (configuration not stated)
 : 10	-5	3.5	-2.2	4%
> COc1ccc(NS(=O)(=O)c2cccc(C(=O)N/N=C(/C)c3ccc(-n4ccnc4)cc3)c2)cc1
 : -1	-6	11	-0.5	-8%
> COC(=O)c1ccc(C(=O)OC)c(NC(=O)Cc2cccs2)c1
 : -5	-6	-2.4	0.4	4.2µM*
> Cc1ccc2c(c1)C(=C(C#N)C#N)CCN2
 : 8	-50	-7.3	-3.0	-8%
> COc1ccc(-c2noc(CCC(=O)N3CCN(c4ccc(F)cc4)CC3)n2)cc1
 : 5	18	-1.2	1.1	-4%
> C/C(=N\NC(=O)c1nnn(-c2nonc2N)c1CN1CCC(C)CC1)c1ccc(Br)cc1
 : 1	0	0.3	2.4	-1%

# Following part.
# Each structure is followed by: Ecoli rRNA inh	Ecoli rRNA inh OD600	Ecoli rRNA inh RFP	MLL AF4-AF9 inh	Vif TR-FRET
> NC(=O)c1ncn([C@@H]2O[C@H](CNCc3ccc(-c4cc(C(F)(F)F)ccc4Cl)o3)[C@@H](O)[C@H]2O)n1
 : 2	0	6.4	-1.0	-1%
> CCNC1(C#N)CCN(Cc2ccccc2)CC1
 : 12	17	-0.1	-0.3	-2%
> O=C(/C=C1\C(=O)Nc2ccccc21)/C=C1\C(=O)Nc2ccccc21
 : 4	6	4.3	0.3	18%
> CC(C)C(NC(=O)c1c(F)cccc1F)C(=O)NCc1ccncc1 (configuration not stated)
 : 4	12	-3.3	-1.8	0%
> Cn1c(=O)c2[nH]c(CN3CCCCC3)nc2n(C)c1=O
 : 11	15	3.4	2.2	-2%
> C[C@@H]1CN([C@@H](C)CO)C(=O)c2cc(NC(=O)C3CCCCC3)ccc2O[C@@H](C)CCCCO[C@@H]1CN(C)C(=O)CCCN(C)C
 : 7&2	14&12	-2.1&-1.6	-0.5&-3.3	-2%
> O=C(O)COc1ccc(NC(=O)c2ccc3c(c2)C(=O)N(CC2CCCO2)C3=O)cc1 (configuration not stated)
 : 4	12	-5.7	0.9	-2%
> Cn1nnnc1SCCNC(=O)C1CCC(=O)N(Cc2cccc(C(F)(F)F)c2)C1 (configuration not stated)
 : 7	8	-0.5	-3.1	0%
> O=C(C=Cc1ccc2c(c1)OCO2)c1ccccc1
 : -16	-17	0.5	6.9	-4%
> O=C(NNC(=O)c1ccc2ccccc2c1)c1ccc(Cl)c(Cl)c1
 : 9	10	-0.3	0.6	-5%
> CC(=O)Nc1c(Cl)cc2c(c1Cl)Cc1cc(C#N)ccc1-2
 : -4	-5	-4.7	0.7	-3%
> CC(=O)OCC1=C(C(=O)O)N2C(=O)C(NC(=O)COc3ccc(F)cc3)C2SC1 (configuration not stated)
 : 6	8	-0.5	-3.6	14%
> COc1ccc(NC(=O)c2c(C)noc2C)cc1S(=O)(=O)N1CCCCC1
 : 1	4	-1.9	-1.2	-3%
> Nc1cccc(C(=O)c2ccccc2C(=O)O)c1
 : 12	8	1.6	1.3	2%
> O=C(CC1Sc2ccccc2NC1=O)NNc1ccc(Cl)c(Cl)c1 (configuration not stated)
 : -6	22	38	0.0	-6%
> Cc1ccc(S(=O)(=O)N2CCOCC2)cc1C(=O)OC1CCOC1=O (configuration not stated)
 : 7	13	-0.3	-2.1	-3%
> CC1(C)N=C(N)N=C(N)N1c1cccc(CC(=O)Nc2ccccc2)c1
 : 4	17	0.5	2.3	-2%
> N#CC(C#N)=C1c2cc(S(N)(=O)=O)ccc2-c2ccc(S(N)(=O)=O)cc21
 : 11	-5	-2.6	-0.2	2%
> O=C1OCCC1=CN1CCCCC1
 : 2	14	-2.0	0.2	-1%
> Nc1ccc(Cn2ccc3c4c(N)nc(N)nc4ccc32)cc1
 : -57	-72	-24	0.8	-6%
> CC(CNC(=O)CN1C(=O)NC2(CCCCC2C)C1=O)c1ccccc1 (configuration not stated)
 : 6	4	1.2	0.5	-4%
> COC(=O)C[C@H]1C[C@@H]2c3cc(NS(=O)(=O)c4ccc(OC)cc4)ccc3O[C@@H]2[C@H](CO)O1
 : -2&2	1&-5	-3.1&1.4	-2.2	-8%
> CC(OC(=O)c1cccc(S(=O)(=O)N2CCCCC2)c1)C(=O)NCC1CCCCC1 (configuration not stated)
 : -1	0	-1.7	-2.4	2%
> CC1(c2ccccc2)NC(=O)N(CC(=O)N(CC(=O)Nc2ccccc2C(F)(F)F)Cc2ccco2)C1=O (configuration not stated)
 : -1	3	3.3	-11	2%
> COc1ccc(C(=O)NCCN(C)C)c2nc3ccccc3cc12
 : -32	-64	-9.6	7.2	-8%
> Cc1ccccc1N1CCN(C(=O)c2cccnc2)CC1
 : 4	1	4.0	0.4	5%
> COC1OC(COCc2ccccc2)C(N)C(OCc2ccccc2)C1OCc1ccccc1 (configuration not stated)
 : -24	-41	-5.1	-42	-11%

# Random excerpt: three records from the list.
# Each structure is followed by: Ecoli rRNA inh	Ecoli rRNA inh OD600	Ecoli rRNA inh RFP	MLL AF4-AF9 inh	Vif TR-FRET
> COC1OC(COCc2ccccc2)C(N)C(OCc2ccccc2)C1OCc1ccccc1 (configuration not stated)
 : -24	-41	-5.1	-42	-11%
> CC1(C)N=C(N)N=C(N)N1c1cccc(CC(=O)Nc2ccccc2)c1
 : 4	17	0.5	2.3	-2%
> COC(=O)C[C@H]1C[C@@H]2c3cc(NS(=O)(=O)c4ccc(OC)cc4)ccc3O[C@@H]2[C@H](CO)O1
 : -2&2	1&-5	-3.1&1.4	-2.2	-8%
